# Assay outcomes: PubChem, Johns Hopkins Ion Channel Center
# Kir21 inh – Kir2.1 (mouse) channel inhibition; P35561; HEK293-Kir2.1, FluxOR thallium flux fluorescence; active compounds read low; B-score at 10 µM; hit rate 0.85% among 310,000;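 active = fluorescence ratio B-score at or below minus 3 SD of library scores, with starting-brightness B-score within 2 SD, cut at about -4.2 in these data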;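 also: channel flux triggered by added potassium and thallium sulfate stimulus; B-score of peak minus minimum fluorescence over baseline after thallium stimulus; more negative B-score means stronger Kir2.1 block with less thallium influx; some compounds called inactive have numbers as strong as hits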
# Target sequence (P35561 whole entry, looked up): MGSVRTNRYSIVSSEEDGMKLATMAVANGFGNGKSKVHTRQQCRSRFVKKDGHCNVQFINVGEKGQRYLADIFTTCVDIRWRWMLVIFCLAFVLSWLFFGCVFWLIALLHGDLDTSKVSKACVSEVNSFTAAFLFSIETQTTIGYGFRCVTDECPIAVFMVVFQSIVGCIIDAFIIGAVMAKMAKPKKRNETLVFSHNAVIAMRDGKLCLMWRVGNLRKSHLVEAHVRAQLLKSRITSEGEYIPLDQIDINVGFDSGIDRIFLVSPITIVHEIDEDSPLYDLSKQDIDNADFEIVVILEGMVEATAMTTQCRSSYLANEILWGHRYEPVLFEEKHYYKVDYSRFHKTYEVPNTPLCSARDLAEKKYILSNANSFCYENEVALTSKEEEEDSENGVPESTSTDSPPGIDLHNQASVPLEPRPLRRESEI
# An asterisk follows results filed as active.
mol,Kir21 inh
COc1ccccc1CCNC(=O)/C(=C/c1cccnc1)NC(=O)c1ccccc1,0.28
Cc1ccc(S(=O)(=O)NC(=O)c2cc(C)n(CCCN3CCOCC3)c2C)cc1,-0.79
CC(C)[C@H](NC(=O)N1CCn2c1nc1ccccc12)C(=O)N[C@H](Cc1ccccc1)C(=O)O,-0.02
Cc1ccc(C2C(C#N)=C(N)Oc3n[nH]c(C)c32)cc1 (stereo unspecified),-0.7
COc1ccccc1/C=N/NC(=O)c1[nH]c(C)c(C(=O)N/N=C/c2ccccc2OC)c1C,1.2
CCOC(=O)C(Cc1ccccc1)NC(=O)CNC(=O)CNC(=O)OCc1ccccc1 (stereo unspecified),-0.91
COc1ccc(-n2nc(C(=O)NCC(=O)N3CC(C)CC(C)C3)c3ccccc3c2=O)c(OC)c1 (stereo unspecified),0.1
COC(=O)c1ccc(/C=N/NS(=O)(=O)c2cc(C)ccc2C)cc1,-1.3
O=C(c1cn(-c2ccccc2)nc1-c1ccc(Cl)s1)N1CCOCC1,0.98
O=C(Nc1ccc([N+](=O)[O-])cc1)c1cc2ccccc2nc1Cl,0.62
O=C(CCc1nc(-c2ccccc2Cl)no1)NCC1CCCO1 (stereo unspecified),0.19
Cc1nc2nc(SCC(=O)Nc3cccc(F)c3)[nH]c2cc1Br,0.28
Cc1onc(-c2ccccc2)c1C(N)=O,0.79
CCOC(=O)C1CCN(c2ccc([N+](=O)[O-])c(C(C)=O)c2)CC1,-0.53
CC(=O)c1ccc(N2CCN(C(=S)Nc3cc(C)ccc3C)CC2)cc1,-2

# Fetched one by one from the entries so far (two):
mol,Kir21 inh
O=C(c1cn(-c2ccccc2)nc1-c1ccc(Cl)s1)N1CCOCC1,0.98
Cc1ccc(C2C(C#N)=C(N)Oc3n[nH]c(C)c32)cc1 (stereo unspecified),-0.7

# Next structures
mol,Kir21 inh
CC(C)CC(=O)CC1(O)C(=O)Nc2ccccc21 (stereo unspecified),-0.01
COc1cc(NC(=O)c2cccs2)c(C(=O)OCC(=O)c2cc(C)n(-c3ccccc3)c2C)cc1OC,-0.2
O=C(Nc1cccc(S(=O)(=O)N2CCCC2)c1)c1ccc2ccccc2n1,-0.1
CCCCC(CC)C(=O)Nc1ccc(Cl)cn1 (stereo unspecified),-1.1
CN1/C(=C/C=N/NC(=O)c2ccc([N+](=O)[O-])cc2)C(C)(C)c2ccccc21,1.1
Cc1cccc(N(C(=O)c2cnc3n(c2=O)CCS3)C2CCCCC2)c1,-0.73
CCC(Oc1ccccc1)C(=O)NCc1cccnc1 (stereo unspecified),1.2
Cc1ccnc2c(N3C(=O)C4C5c6ccccc6C(c6ccccc65)C4C3=O)cccc12 (stereo unspecified),-0.18
CCOc1ccc(S(=O)(=O)n2ccnc2)c2ccccc12,1.3
Cc1cccc(-n2ncc3c2CCCC3NC(=O)Cc2c(C)noc2C)c1C (stereo unspecified),0
CCn1c(SCC(=O)OC)nnc1-c1ccncc1,-0.08
COC(=O)C1CCN(C(c2cc(OC)c(OC)c(OC)c2)c2sc3nc(C)nn3c2O)CC1 (stereo unspecified),1.9
CCOCCCNC(=O)CN1N=C(c2ccc(C)cc2)CCC1=O,0.38
CC(C)NC(=O)C1CCN(C2CCN(CC3CC=CCC3)CC2)CC1 (stereo unspecified),2.3
CC1Cc2ccccc2N1CC(=O)NC(=O)NCc1ccco1 (stereo unspecified),-1.4

# Some of these compounds in order of molecular weight, low to high.
mol,Kir21 inh
CCOCCCNC(=O)CN1N=C(c2ccc(C)cc2)CCC1=O,0.38
CN1/C(=C/C=N/NC(=O)c2ccc([N+](=O)[O-])cc2)C(C)(C)c2ccccc21,1.1
Cc1cccc(-n2ncc3c2CCCC3NC(=O)Cc2c(C)noc2C)c1C (stereo unspecified),0

# (cont.)
mol,Kir21 inh
COc1ccc(/C=C2\C(=O)NCC(=O)N2C)cc1,-0.13
CCOC(=O)c1ccc(Cl)c(NC(=O)c2cccnc2)c1,-0.48
O=C(NCCN1CCCCCC1)C1CCC(CNS(=O)(=O)c2cccc3cccnc23)CC1 (stereo unspecified),1.7
COc1ccc(NC(=O)CN2C(=O)CSC(C)C2=O)cc1 (stereo unspecified),-1
COc1ccccc1N1CCN(C(=O)CSc2nnc(-c3ccoc3C)o2)CC1,-0.81
CCC(CC)C(=O)c1c[nH]c(C(=O)NCc2ccco2)c1,0.41
CCCCNC(=O)CNC(=O)c1nn(-c2ccc(OC)cc2OC)c(=O)c2ccccc12,0.86
COc1ccc(C(=O)NC2CCN(C(=O)Nc3ccc(F)cc3)CC2)cc1,-0.23
Nc1nc(N2CCOCC2)cc(=O)[nH]1,-2.1
CC(C)Cc1nc(SCC(=O)N2CC(C)OC(C)C2)c2c(=O)n(C)c(=O)n(C)c2n1 (stereo unspecified),1
Cc1c(O)ccc(C(=O)COc2ccccc2F)c1O,0.42
CC(NC(=O)CN1CCN(c2ccc(Cl)cc2)CC1)c1ccccc1 (stereo unspecified),-0.71
C=CCNC(=O)CCCc1ccccc1,0.28
COc1ccc(N2C(=O)C3CCCN3C2c2ccc(C)cc2)cc1 (stereo unspecified),0.53
Cc1nn(Cc2c(F)cccc2Cl)c(C)c1NC(=O)C1CC1,-0.39
C=CCn1c(Cc2cccs2)nnc1SCC(=O)Nc1ccc(C(=O)OCC)cc1,-0.63
CCCC(=O)Nc1ncnc2c1ncn2[C@@H]1O[C@@H]2COP(=O)(O)O[C@H]2[C@H]1OC(=O)CCC,-0.14
O=S(=O)(c1ccccc1)N1CCN(C(=S)NC2CCCC2)CC1,-0.38
C=CCOc1c(Br)cc(CNn2c(C)n[nH]c2=S)cc1OC,1.6
CC1(CC(=O)N/N=C/c2ccc(-c3cccc(C(F)(F)F)c3)o2)OCCO1,-1.1
CC1=NN(C(N)=S)C(=O)C1N=Nc1cccc(C(=O)O)c1 (stereo unspecified),0.02
CN(CC(=O)N1CCCCC1)S(=O)(=O)c1cccc2cccnc12,0
NS(=O)(=O)c1ccc(CCNC(=O)CC(NC(=O)c2ccccc2Cl)c2ccccc2)cc1 (stereo unspecified),-0.18
O=C1N/C(=C/c2cccs2)C(=O)N1Cc1ccccc1F,0.62
C(=C\c1nc(N2CCCCCC2)c2ccccc2n1)/c1ccccc1,1.1
O=C(O)C1CCCN(S(=O)(=O)c2cccs2)C1 (stereo unspecified),0.02
O=C(CCc1c[nH]c2ccccc12)NCCc1ccccc1,-0.02
CSc1ccc(S(=O)(=O)NCC(=O)OCC(=O)NCc2ccco2)cc1[N+](=O)[O-],0.07
FC(F)C(F)(F)c1cc(-c2ccccc2)n[nH]1,-0.16
CCN(C(=O)c1ccc(Cl)c([N+](=O)[O-])c1)c1ccccc1,-2.9
COc1ccc(Nc2oc(-c3ccc(F)cc3)nc2C#N)cc1,0.07
CC(=O)c1cnc(-c2cccc(Cl)c2)s1,-2
Cc1ccc(-c2nn(C)c(=O)c3ccccc23)cc1CN1CCOCC1,-0.06
CC1(C)CC(=O)C2=C(C1)N(N1CCOCC1)C(N)=C(C#N)C2c1cccs1 (stereo unspecified),0.21
Cc1ccc(OCCSc2nc3ccccc3n2CC(=O)O)cc1,0.41
COc1cccc(C(=O)Nc2c3c(nn2-c2ccc([N+](=O)[O-])cc2)CS(=O)(=O)C3)c1,0.34
NC(=O)C1CCN(c2ncccc2[N+](=O)[O-])CC1,-1.3
O=C(c1n[nH]c(=O)c2ccccc12)N1CCN(Cc2ccc3c(c2)OCO3)CC1,0.03
COC(=O)C1=C(C(C)=O)C(c2ccc(C)cc2)n2nnnc2N1 (stereo unspecified),-0.39
CCC(C)C(=O)Nn1c(C2CC2)nc2cc(OC)c(OC)cc2c1=O (stereo unspecified),1.9
CC(C)(C)c1ccc(C(=O)NCC(=O)OCc2ccc([N+](=O)[O-])cc2)cc1,-0.11
CC(C)(C)C(=O)Nc1nc2ccc(S(C)(=O)=O)cc2s1,0.35
COc1ccccc1OCC(=O)N1CCCC(Nc2cccc(F)c2)C1 (stereo unspecified),0
COc1cc(C(=O)Nc2cccc(C(C)=O)c2)cc(OC)c1OC,-0.63
COc1ccc(OC)c(CC(NC(C)=O)C(=O)NC2CCN(c3cc(C)nc4ncnn34)CC2)c1 (stereo unspecified),-0.18
COc1ccccc1NC(=S)N1CC(C)OC(C)C1 (stereo unspecified),2.3
O=C1C(=O)N(O)C2CCCCC2N1O (stereo unspecified),0.15
Cc1ccc(C)n1-n1cnc2sc3c(c2c1=O)CCCCC3,0.01
COC(=O)/C(=C/c1ccccc1)NC(=O)c1ccco1,-1.1
CCOc1ccccc1OCC(=O)Nc1ccc(Cl)cc1Cl,-0.18
O=S(=O)(NCc1ccccc1)c1ccc(S(=O)(=O)N(Cc2ccccn2)C2CCCC2)cc1,-0.98
CC(=O)N1CCc2c(sc(NC(=O)C3CCCN3S(=O)(=O)c3cccs3)c2C(N)=O)C1 (stereo unspecified),-0.67
CCCCC1NC(C(=O)O)CS1 (stereo unspecified),-0.67
Cc1cc(C)n2cc(CSc3ccc(Br)cc3)nc2n1,-1.6
COc1ccc2cc(C(=O)NCCc3ccccc3)[nH]c2c1,1.3
COc1cc(NC(=S)N2CCN(C(=O)C3CCCO3)CC2)c(OC)cc1Cl (stereo unspecified),1.1
O=C(NCc1ccncc1)C1CCCN1S(=O)(=O)c1ccc(Cl)cc1 (stereo unspecified),-0.53
COc1cc(OC)cc(N(C(=O)CNC(=O)c2cccs2)C(C(=O)NCC2CCCO2)c2ccc(OC)c(OC)c2)c1 (stereo unspecified),1.1
CN(CC(=O)O/N=C(\N)c1ccc([N+](=O)[O-])cc1)S(=O)(=O)c1ccc2ccccc2c1,-0.09
CCNC(=S)N1CCN(CCNC2=CC(=O)CC(C)(C)C2)CC1,0.95

# Remaining list, next part.
mol,Kir21 inh
Cc1cc(C)nc(NS(=O)(=O)c2ccc(NC(=S)NC(=O)c3ccco3)cc2)n1,0.97
CC(C)C(=O)Nc1ccc2c(c1)nc1n2CCSC1,-0.38
Cc1nn(S(=O)(=O)c2ccc(C(C)(C)C)cc2)c(C)c1S(=O)(=O)N1CCOCC1,0.02
CN1C(=O)N(C)C2C1N(C)S(=O)(=O)N2C (stereo unspecified),0.18
Cc1cccc(OCCN2CSC(=S)N(C)C2)c1,0.93
COc1ccc([N+](=O)[O-])cc1NC(=S)Nc1ccccc1,-0.46
Cc1cc(Nc2ccc(Cl)cc2)nc(N)n1,0.3
Cc1ccccc1NC(=O)Cn1nnc(S(=O)(=O)c2ccc(C(C)(C)C)cc2)c1N,-0.44
CCNC(=S)N(CCc1c(C)[nH]c2ccccc12)Cc1cc(OC)c(OC)c(OC)c1,-0.62
Cc1ccc(C)c(CN2CCC(n3nccc3NC(=O)C3CCCC3)CC2)c1,-0.73
Cc1cccc(C(=O)N[C@H](C(=O)Nc2cccc(S(=O)(=O)N3CCCC3)c2)C(C)C)c1,1.5
CCN1CCN(CCCNC(=O)c2ccc3c(c2)N(Cc2ccccc2)CCS3)CC1,0.11
CCC(C)(C)c1ccc(Oc2cccc(C(=O)O)c2)cc1,0.75
CCN1C(=O)/C(=C2\C=Cc3ccccc3N2CC)OC1=S,1
O=C(Nc1ccc(N2CCN(C(=O)c3ccco3)CC2)cc1)c1ccc2c(c1)OCO2,-0.17
Cc1ccc(NC(=O)c2ccc(CN3CCN(C)CC3)cc2)cc1Nc1nccc(-c2cccnc2)n1,1
Cc1ccc(-n2c(SCC(=O)N/N=C/c3ccccc3OCC(=O)O)nc3ccccc3c2=O)cc1,-1.9
CC1(C)SCC(C(=O)O)NC1=O (stereo unspecified),-0.67
O=C(NN1C(=O)CSC1=S)c1cccnc1,-0.26
COc1ccc(-n2c(=O)c3c4c(sc3n(CC(=O)NC3CCCC3)c2=O)CCCC4)c(OC)c1,-0.37
Cc1ccn2cc(-c3nonc3C)cc2c1,-0.41
FC(F)(F)c1cnc(C(c2ccccc2)c2ncn[nH]2)c(Cl)c1 (stereo unspecified),-1.1
COC(=O)/C(C#N)=C/c1ccc(C)o1,0.6
Cc1csc(SCC(=O)NC(=O)Cc2ccccc2)n1,0.42
CC(=O)NC1=NN(C(C)=O)C2(CCCC2)S1,-1.3
COc1ccc(C(CCN2CCOCC2)c2c(O)cc(OC)cc2OC)cc1 (stereo unspecified),-2.2
CCOC(=O)CNC(=O)CNC(=O)c1nn(-c2ccc(OC)c(Cl)c2)c(=O)c2ccccc12,-1.1
O=C(NC1CCCCCC1)c1ccc(CS(=O)(=O)Cc2ccc(F)cc2)o1,-0.03
COc1ccc(NC(=O)CSc2nccn2Cc2ccco2)c(OC)c1,1.3
COc1ccccc1N1CCN(C(=O)c2oc3ccc(F)cc3c2C)CC1,0.72
O=C(NCCN=C1NS(=O)(=O)c2ccccc21)c1ccncc1,0.12
CCN(c1ccccc1)S(=O)(=O)c1ccc(Cl)c(NC(=O)CN(C)C2CCN(C)CC2)c1,1.5
O=[N+]([O-])c1ccc(NCCOc2ccccc2Cl)nc1,0
O=C1CSC(=NC2CCCCC2)N1,-0.64
Cn1c(=O)[nH]c(=O)c2c1nc(NCc1ccccc1)n2Cc1ccc(F)cc1,-0.71
CCN1CCCC1CNC(=O)C(NC(=O)C1CCC(C)CC1)C(C)C (stereo unspecified),-0.01
CC(C)(C)C(=O)OC/C(N)=N/OC(=O)c1ccccc1,1.5
N#CCC(=O)Nc1ccc(C(=O)OCC(=O)NNC(=O)c2ccc(Cl)cc2)cc1,0.89
COc1ccccc1N1CCN(C(=O)COc2cccc3ccccc23)CC1,0.77
CCOC(=O)C1(P(=O)(c2ccc(Cl)cc2)c2ccc(Cl)cc2)CCC1,-3.3
CC(C)(C)NC(=O)Cn1nnc(-c2ccccc2Cl)n1,0.08

# A portion of the library; most or all hits stand in other tables.
